NPYLR7 agonist – agonists of mosquito NPYLR7 receptor, primary screen, cell-based, Aedes aegypti, calcium fluorescence, mosquito biting behavior; Aedes aegypti neuropeptide Y-like receptor 7 (NPYLR7); HEK293T NPYLR7/Galpha15, GCaMP6s calcium fluorescence; activation, % at 10 µM; 270,000 tested, 0.15% active; AID 1259423, 2018; in the data active = activation above about 40%;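 note: 0% = vehicle and 100% = reference agonist at the receptor; some compounds past the cut are filed as inactive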
NPYLR7 agonist max-min – further read-out of NPYLR7 agonist, marked with its call; activation, %; measured here: Max-Min RFU normalised activation; some inactives read as strong as hits;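 span of the calcium signal over five minutes; 0% = vehicle and 100% = native peptide agonist; compound fluorescence can raise it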
* = called active by the depositor; & = joins results of further samples. These rows are one share of the data; count on the stated rates, not on these rows.

molecule,NPYLR7 agonist max-min,NPYLR7 agonist
C=C(C)CN(C)C(=O)c1ccc2nc(C)c(C)nc2c1,3,-1
CC12CCC(C(=O)N(CC(O)CN3CCCCC3)C1=O)C2(C)C (stereo not drawn),6,6
COc1ccccc1OCC(C)n1cnc(-c2ccccc2)c1C1CC1 (stereo not drawn),5,-1
CN(C)c1ncccc1CNc1ccc2cc(Cl)ccc2n1,9,24
COc1c[nH]c(C(=O)N2C[C@@H]3[C@@H]4CC[C@@H](C4)[C@@H]3C2)cc1=O,-5,0
CC1CN(C2CCCCC2)c2nc3c(c(=O)n(CC(N)=O)c(=O)n3C)n2C1 (stereo not drawn),1,6
CCOC(=O)c1nc2cc(Cl)c(Cl)cc2nc1N1CCN(C(=O)N2CCOCC2)CC1,1,3
CCCC(C)c1c(-c2ccccc2)ncn1Cc1cnc(C)cn1 (stereo not drawn),-7,-5
CC1CCN(c2cc(Oc3ccccc3Cl)ncn2)CC1,-6,-8
CCN1C(=O)C2(SC(C)(C)CN2C(=O)c2cccc(Cl)c2)c2cc(F)ccc21 (stereo not drawn),4,-1
CC1=C(C(=O)OCCc2ccccc2)C(c2cccc([N+](=O)[O-])c2)NC(=O)N1C (stereo not drawn),-1,1
O=C(CN1CN(c2ccccc2)C2(CCN(C(=O)Nc3cccc(Cl)c3Cl)CC2)C1=O)N1CCOCC1,27,10
O=C(CSc1nc2ccccc2s1)N1c2ccccc2CCc2ccccc21,-6,-2
Cc1ccc(-c2nc3ccc(C)cn3c2NC(=O)/C=C/c2ccccc2)cc1,5,-3
NC12CCc3c(no[n+]3[O-])C1(O)CC(c1ccccc1)=[N+]2[O-] (stereo not drawn),-2,0
O=c1cc(CN2CCCn3cncc3C2)c2cccc3c2n1CCC3,-1,4
CCN=c1sc(CC(=O)O)c(-c2ccc(Cl)cc2)n1CC,9,9
O=C(COC(=O)c1cccs1)c1ccc(Cl)c(Cl)c1,-2,3
CCNC(=O)c1ccnc(N2CCC(CO)(Cc3ccccc3Cl)CC2)c1,22,24
C/C=C\COC1CCCN(C(=O)c2cccc(OC)c2)C1 (stereo not drawn),5,-2
Cn1c(=O)c2cn(-c3ccc(Br)cc3)cc2n(C)c1=O,1,6
COc1ccc(NC(=O)CSc2nc3c(c(=O)n2-c2cc(C)cc(C)c2)SCC3)cc1,-9,-3
CCc1nnc(-c2cc3ccccc3n2CC(=O)Nc2ccc(C(N)=O)cc2)o1,-2,-2
O=C(C1CCCO1)N1CCc2c(sc3[nH]c(=O)n(-c4ccc(F)cc4F)c(=O)c23)C1 (stereo not drawn),-9,-5
Cc1ccccc1CN1CCN(C(C)C(=O)NNC(=O)c2ccc(F)cc2)CC1 (stereo not drawn),1,1
CN(Cc1ccco1)C(=O)c1cc2ccccc2cc1O,-5,-3
OC/C=C/c1ccc(O)c(O)c1,-11,-8
CCc1cnc2c(c1SCc1ccccc1F)c(=O)n(C)c(=O)n2C,9,7
COC(=O)c1ccc(CN2CCN(c3ccc(OC)cc3OC)C(=O)C2C)cc1 (stereo not drawn),15,-1
CCCn1nc2c(c1C)C(CCSC)CC(=O)N2 (stereo not drawn),2,0
CC(C)(C)n1nc2c(c1NC(=O)c1cccc(C(F)(F)F)c1)CSC2,-3,-3
COc1cc(CCC2CCN(C(=O)Nc3ccc(C)cc3)CC2)cc(OC)c1,18,-1
c1ccc(Cn2cc(CN3CCN(CC4CC4)CC3)c(-c3ccc4c(c3)OCO4)n2)cc1,-1,3
COC(=O)c1cc(Cl)c2c(c1)CC(CNC(=O)c1cc3ccccc3s1)O2 (stereo not drawn),0,3
O=C(CN1C(=O)c2ccccc2C1=O)N1CCN(CC=Cc2ccccc2)CC1,-10,-5
CCOC(=O)c1c(NC(=O)c2ccnc(Cl)c2)c(-c2cccc(F)c2)cn1C,23,12
CN(Cc1ccc2[nH]ccc2c1)Cc1cnn(-c2ccccc2)c1,-9,2
CCOC(=O)C(C#N)=CNc1nc(C(C)=O)cs1,3,4
COc1ccc(CCNC(=O)CCc2ccc(-c3ccc(C)cc3C)n2-c2ccc(CC#N)cc2)cc1,17,23
Cc1nc(-c2ccc(CCNC(=O)C3CCCO3)s2)cs1 (stereo not drawn),0,1
CCCCCCc1ccc(C(=O)N(CC)CC(=O)Nc2cc(C(C)(C)C)nn2-c2ccccc2Cl)cc1,17,20
Cc1ccc(C)c(-n2c(CNC(=O)COc3ccccc3)nnc2SCC(=O)N2CCc3ccccc32)c1,-3,-13
O=C(N=Nc1c(O)[nH]c2ccc(Br)cc12)c1ccc([N+](=O)[O-])cc1,3,8
O=C(O)c1c[nH]c2c(ccc3ccccc32)c1=O,2,5
CN(Cc1nccn1C(F)F)C(=O)NC(c1nccs1)C1CC1 (stereo not drawn),19,2
CN(C(=O)Cn1cc(C(F)(F)F)cc(Cl)c1=O)C1CCCc2ccccc21 (stereo not drawn),-3,1
C#CCOCC(O)CN(CC(=O)N1CCc2sccc2C1COc1ccc(C)cc1C)C1CC1 (stereo not drawn),7,7
Cc1cccnc1C(NC(=O)C1CCN(CCc2ccccc2)CC1)c1ccccc1 (stereo not drawn),-8,-1
C=C(C)Cn1c(C2CC(=O)N(c3ccc(F)cc3)C2)nc2ccccc21 (stereo not drawn),-4,0
CCc1noc(C)c1C(=O)Nc1ncc(Cc2ccccc2)s1,-3,2
CC(=O)C1=C(c2ccc(C3CCCCC3)cc2)N(C(C)=O)n2c(C)nnc2S1,-1,4
O=C(NC1CC1)c1sc2cc(F)ccc2c1Cl,1,2
COc1ccc(CN(C2CC2)S(=O)(=O)c2ccc(Br)cc2)cc1,0,3
O=C(NOCc1ccccc1)NC1CCN(C(=O)C2CC2)CC1,-4,-4
COc1ccccc1-n1ccn2c(=O)n(Cc3ccc(F)cc3Cl)nc2c1=O,-26,-23
CCC1CN(Cc2ccccc2OCC(=O)N(C)C)CCN1C(C)C (stereo not drawn),-6,-5
O=C(CSc1nc2[nH]ncc2c(=O)[nH]1)Nc1ccc(F)cc1F,-2,-1
COCc1cc(CN(C)c2ncnc3[nH]ccc23)[nH]n1,2,2
Cc1cc(C(=O)N(CCCN2CCOCC2)c2nc3c(F)cc(F)cc3s2)n(C)n1,0,0
Cc1cc(C=C2Sc3ccccc3N2C)cc(C)[n+]1N1CCN(C)CC1,38&14,47&22

(more compounds)
molecule,NPYLR7 agonist max-min,NPYLR7 agonist
CCc1ccc2c(c1)SC1=NS(=O)(=O)CCN12,-9,-7
O=C(c1cc(-n2cccn2)ccc1Cl)N1CC[C@H](CO)[C@@H](O)C1,-7,-1
CCC(=O)N1CCCCC1C(=O)Nc1cc(C2CCCC2)[nH]n1 (stereo not drawn),-2,1
Cc1nccn1-c1ccc(CNC(=O)c2cn(-c3ccccc3)nn2)cc1,-4,4
CC1(C)O[C@@H]2C[C@@](OCc3ccccc3)(C(=O)NCC3CCCO3)CC(OCc3ccc(C#N)cc3)[C@@H]2O1 (stereo partly drawn),3,-3
C=CCCCCCCCCC(=O)N1CCN(Cc2cc(=O)c(OCc3cc(C)cc(C)c3)co2)CC1,5,4
COC(=O)COc1cc2oc(=O)c3c(c2cc1Cl)CCC3,10,7
CNc1nc2cnc(Nc3cccc(Oc4ccccc4)c3)cc2n1-c1cc(OC)c(OC)c(OC)c1,-5,6
CC(C)(C)Nc1c(-c2ccc3c(c2)OCO3)nc2ccc(Cl)cn12,7,4
Cc1cccc(NC(=O)Cn2c(C)cc(=O)c3cccc(C)c32)c1,6,6
CC1(C)CC(=O)C2=C(C1)Nc1nc3ccccc3n1C2c1cccc(F)c1 (stereo not drawn),3,3
COC(=O)c1ccc(NC(=O)CCc2ccc(F)c(F)c2)s1,-2,-1
FC(F)(F)c1ccc(C2CCCCC2Nc2ccc3nnnn3n2)cc1 (stereo not drawn),2,4
CCN(CC)C(=O)CSc1nc(-c2ccco2)nc2ccccc12,-10,-9
COc1ccc(-n2[nH]c(C)c(C3=C(N(C)Cc4ccccc4)C(=O)N(CC(C)C)C3=O)c2=O)cc1,7,18
Cc1ccc(-n2cnnn2)cc1NC(=O)NC1CCN(C)C(C)C1 (stereo not drawn),-11,-10
COc1ccc(Nc2nc(N(C)C)nc(N)c2[N+](=O)[O-])cc1,-1,-1
Cc1ccc(C)c(S(=O)(=O)N2CCN(c3nccc(-c4ccc(Oc5ccccc5)cc4)n3)CC2)c1,22,10
Cc1ccc2[nH]c3c(c2c1)CCOC31CCN(C(=O)NCc2cccc(F)c2)CC1,11,13
CCCCCn1nc(C(=O)NNC(=O)c2ccco2)c2ccccc2c1=O,-4,4
CNC(=O)CC1CCN(Cc2cc(C(C)(C)C)ccc2O)CC1,5,6
COC(=O)[C@@H]1C[C@@H](O)CN1Cc1cnc(-c2ccccc2C)s1,19,1
Cc1cccc(-n2c(SCc3nc(C(=O)O)cs3)nnc2-c2cccs2)c1,7,10
Cc1noc(C)c1CNC(=O)C1CC(c2ccccc2)C1 (stereo not drawn),-2,1
CCCCSC1=C(C#N)C(=O)NC(C)(C)S1,0,1
Cc1cc(N)ccc1S(=O)(=O)Nc1ccc(Br)cc1,5,4
C#CCN(C1CCc2ccccc21)S(=O)(=O)c1cc(C(N)=O)n(C)c1 (stereo not drawn),2,4
Cc1cccc(CN2CCN(Cc3cnc(-c4ccccn4)nc3)CC2)c1,5,8
O=C(NN1CCOCC1)[C@@]1(OCc2ccccc2)CC(OCc2ccccc2F)[C@H](O)[C@H](O)C1 (stereo partly drawn),13,5
CCN(CC)CC1CN(Cc2ccc(OC)cc2)CCO1 (stereo not drawn),6,7
COCC(=O)N1CCC(C(NC(=O)c2cccc(C)c2)C(=O)NCc2ccco2)CC1 (stereo not drawn),5,-1
COc1ccc2oc(=O)n(C3CCN(C(=O)c4cc(C)oc4C)CC3)c2c1,24,25
Cc1onc(-c2ccccc2Cl)c1C(=O)NCCCCc1ccccc1,-6,-4
Nc1nc(SCC(=O)Nc2cccc(F)c2)[nH]c(=O)c1NC(=O)c1ccccc1F,-9,-7
CCCN(CC#Cc1ccccc1)C(=O)c1ccc2nccn2c1,-2,1
CCOCCN1CCN(CC(=O)N2CCc3ccccc32)CC1CC (stereo not drawn),-14,10
CN1CCC(CNC(=O)CCc2cccs2)C1 (stereo not drawn),2,3
CCCCN(C(=O)c1cnccn1)c1c(N)n(CCC)c(=O)[nH]c1=O,7,10
O=C(Nc1ccc2nc([C@@H]3O[C@H](CO)[C@@H](O)[C@H](O)[C@H]3O)[nH]c2c1)Nc1cccc2nsnc12,20,14
Cc1ccc(CN(Cc2ccc(C(O)(c3cccc(F)c3)c3cccc(F)c3)o2)CC2CCCO2)s1 (stereo not drawn),-2,1
Cc1nc2ncnn2c(N2CCN(S(=O)(=O)c3ccc(C(F)(F)F)cc3Cl)CC2)c1Cc1ccccc1,20,32
Cc1cc(N2CCN(CC(=O)NC(C)(C)C)CC2)n2c(nc3ccccc32)c1C#N,2,5
CCCNC(=O)CN1c2ccccc2SC(C)C1C (stereo not drawn),15,2
Cc1cc(CNC(=O)c2cc(S(=O)(=O)NC3CC3)c(Cl)cc2Cl)ccc1F,-4,0
CCCC1=NN2CCS(=O)(=O)N=C2S1,3,0
O=C(c1ccccc1-c1ccc(C(F)(F)F)cc1)N1CCCC1c1nnc2c(C(F)(F)F)cccn12 (stereo not drawn),-15,-8
CCO[C@H]1COC[C@@H]1NC(=O)c1csc(C(C)=O)c1,1,1
Fc1ccc(F)c(-n2c(COc3ccccc3)n[nH]c2=S)c1,-7,-4
CCCc1cc(CN(C)C(=O)c2cc3ccccc3n2C)[nH]n1,2,1
O=C(NCCS(=O)(=O)c1ccc(C(F)(F)F)cn1)c1ccc(Cl)cc1,-2,3
C=CCN(CC#Cc1ccccc1)C(=O)C(C)CC (stereo not drawn),1,4
CCCC(CCC)C(=O)N1CCN(c2ccc(NC(=O)COC)cn2)CC1,0,4
CCOC(=O)c1c(CN2CCCCC2)n(C)c2cc(Br)c(O)cc12,1,1
CCN(C)c1c(C)nc2c(OCC(=O)N3CCOCC3)cccn12,7,18

Grouped by structure, the compounds so far containing a thiophene ring, fused or not (eleven)
molecule,NPYLR7 agonist max-min,NPYLR7 agonist
O=C(COC(=O)c1cccs1)c1ccc(Cl)c(Cl)c1,-2,3
O=C(C1CCCO1)N1CCc2c(sc3[nH]c(=O)n(-c4ccc(F)cc4F)c(=O)c23)C1 (stereo not drawn),-9,-5
COC(=O)c1cc(Cl)c2c(c1)CC(CNC(=O)c1cc3ccccc3s1)O2 (stereo not drawn),0,3
Cc1nc(-c2ccc(CCNC(=O)C3CCCO3)s2)cs1 (stereo not drawn),0,1
C#CCOCC(O)CN(CC(=O)N1CCc2sccc2C1COc1ccc(C)cc1C)C1CC1 (stereo not drawn),7,7
O=C(NC1CC1)c1sc2cc(F)ccc2c1Cl,1,2
COC(=O)c1ccc(NC(=O)CCc2ccc(F)c(F)c2)s1,-2,-1
Cc1cccc(-n2c(SCc3nc(C(=O)O)cs3)nnc2-c2cccs2)c1,7,10
CN1CCC(CNC(=O)CCc2cccs2)C1 (stereo not drawn),2,3
Cc1ccc(CN(Cc2ccc(C(O)(c3cccc(F)c3)c3cccc(F)c3)o2)CC2CCCO2)s1 (stereo not drawn),-2,1
CCO[C@H]1COC[C@@H]1NC(=O)c1csc(C(C)=O)c1,1,1
